Assay outcomes from PubChem.
NPR1 antag – Natriuretic polypeptide receptor (hNpr1) antagonism - Primary qHTS | Potency, µM (series often up to 46.3 µM), for inactives: at the top dose activity change, negative = inhibition, usual class: inhibitors | hit rate 1.6% among 76,000 | HEK293 hNpr1 GloSensor cGMP, ANP-stimulated luminescence | AID 1347048, 2019; active = well fitted inhibition curve with a large enough effect; inconclusive = small, poorly fitted or top-dose-only effect; inactive = no such curve, though single readings can be large or run the other way;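 also: nearly all actives have a fitted effect of over 60% in size; nearly all hits also lower the signal before the agonist is added; a reference antagonist and vehicle were the controls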
Target sequence (P16066 whole entry, looked up): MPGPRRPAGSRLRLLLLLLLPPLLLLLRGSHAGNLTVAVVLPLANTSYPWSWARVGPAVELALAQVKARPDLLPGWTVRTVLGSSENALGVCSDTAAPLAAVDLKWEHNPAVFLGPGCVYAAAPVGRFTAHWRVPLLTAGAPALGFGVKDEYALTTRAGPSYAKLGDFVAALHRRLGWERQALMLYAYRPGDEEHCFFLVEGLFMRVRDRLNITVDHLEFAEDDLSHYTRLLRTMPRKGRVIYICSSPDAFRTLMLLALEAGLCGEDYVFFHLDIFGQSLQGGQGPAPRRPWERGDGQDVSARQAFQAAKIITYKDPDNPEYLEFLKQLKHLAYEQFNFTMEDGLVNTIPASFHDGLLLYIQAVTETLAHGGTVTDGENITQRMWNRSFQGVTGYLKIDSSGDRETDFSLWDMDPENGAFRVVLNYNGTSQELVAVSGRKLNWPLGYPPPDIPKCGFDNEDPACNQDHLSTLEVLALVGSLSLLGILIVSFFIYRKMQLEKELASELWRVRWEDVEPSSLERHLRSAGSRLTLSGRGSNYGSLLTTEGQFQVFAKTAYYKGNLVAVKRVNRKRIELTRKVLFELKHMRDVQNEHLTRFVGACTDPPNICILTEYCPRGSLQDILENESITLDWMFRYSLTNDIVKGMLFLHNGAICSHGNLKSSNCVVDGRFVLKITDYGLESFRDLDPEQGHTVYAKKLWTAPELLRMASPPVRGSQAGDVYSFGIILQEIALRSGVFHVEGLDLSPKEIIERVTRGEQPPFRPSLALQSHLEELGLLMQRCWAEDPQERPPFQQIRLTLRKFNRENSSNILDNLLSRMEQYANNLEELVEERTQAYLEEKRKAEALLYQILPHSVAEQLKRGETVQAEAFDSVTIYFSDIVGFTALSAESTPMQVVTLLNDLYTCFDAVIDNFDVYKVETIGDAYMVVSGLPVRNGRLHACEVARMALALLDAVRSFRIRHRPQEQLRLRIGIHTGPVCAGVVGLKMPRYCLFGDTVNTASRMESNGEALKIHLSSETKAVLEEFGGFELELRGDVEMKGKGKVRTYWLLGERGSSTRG
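Compound pre-incubated 30 min at room temperature on GloSensor-loaded HEK293 cells stably carrying hNpr1 and the pGS-40F cGMP biosensor. Stimulation uses hNppA at 0.1 nM final; luminescence is taken at baseline and 20 min post-agonist.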
An asterisk follows results filed as active; ? = inconclusive; [ ] = remark or other dose. % is scaled to controls: 0 for no effect and ±100 for the full control effect; potency is read from the fitted curve at half-maximal effect. Not all compounds are listed. The share of hits here may be higher or lower than overall.

SMILES	NPR1 antag
O=C(NC1CCc2nnc(C3CC3)n2CC1)c1ccc2ccccc2n1 (centres undefined)	3%
CN1CC(=O)N(c2ccccc2F)Cc2c1ncnc2N1CCc2ccccc2C1	3%
Cc1ccc(NC(=O)C2CCN(C(=O)c3ncn4c3COC(c3ccc(F)cc3)C4)CC2)c(F)c1 (centres undefined)	-2%
COc1cccc(CN2CCOC3CCN(Cc4cccc(Cl)c4)CC3C2=O)c1 (centres undefined)	4%[70.6 µM]
CCN1CCC2(CCC1=O)CN(C(=O)CCc1cccnc1)CCN2C (centres undefined)	0%
COc1cc(Cl)c(CN2CCC[C@H]2C(=O)O)cc1OC	5%
CC(C)(C)CN[C@@H]1CO[C@H](CNC(=O)c2ccc(F)cc2)[C@H]1O	4%[70.6 µM]
CCCCS(=O)(=O)N1C[C@@H](COC)[C@H](C(=O)NC)C1	-4%
Cc1nc([C@H]2CCN(Cc3cccnc3)C[C@H]2NC(=O)C2CC2)n[nH]1	8%
COc1ccc(S(=O)(=O)N2CCOC[C@H](Oc3ccc(C(F)(F)F)cn3)C2)cc1	?
COc1ccc(-c2cc3c(ccn3C)c(C(=O)NCc3c(C)cc(C)[nH]c3=O)n2)cc1	?
OCc1cccc(-c2cc3c(cn2)CN(CCc2ccccc2)CCN3)c1	0%[70.6 µM]
COc1ccc(C(=O)N2CC(=O)N(c3ccc(C)cc3)CC2C)c(OC)n1 (centres undefined)	-1%
CC1(c2ccccc2)N(Cc2ncccn2)C(=O)OC12CCN(C(=O)c1ccc(Oc3ccccc3)cc1)CC2 (centres undefined)	-5%
COc1ccc(C(=O)N2CCCn3nc(C)c(-c4ccccc4C(C)C)c32)cc1	-20%[70.6 µM]
CS(=O)(=O)N1C[C@H]2CCN(Cc3ccccc3F)C[C@H]21	-1%
CCn1cc(S(=O)(=O)N2CCC3(CC2)CC(N(C)Cc2ccccc2)CCO3)cn1 (centres undefined)	-30%
C=CCNC(=O)[C@@H]1Cc2cn(Cc3c(C)noc3C)c3cccc(c23)[C@H](CC(C)C)N1	0%[70.6 µM]
CC(C)NC(=O)N[C@H]1CCN(C(=O)c2cnccn2)[C@@H]1C(=O)N[C@@H](CCCNC(=O)c1cnccn1)C(N)=O	6%
C1CCC(CN2CCn3c(nnc3C3CCCNC3)C2)CC1 (centres undefined)	-7%
O=C(c1cc(F)ccc1F)N1CCC(n2cc(-c3nc(-c4ccccc4)no3)nn2)CC1	-30%
COC(=O)c1ccccc1S(=O)(=O)N1CCC2(CCCNC2)C1 (centres undefined)	-6%
O=[S+]1([O-])NC2(CCN(Cc3ccc(F)cc3)C2)CNc2ccccc21 (centres undefined)	-5%
COc1cccc(CN2C(=O)OC3(CCN(C(=O)C4CCC(OC)CC4)CC3)C2(C)c2cccnc2)c1 (centres undefined)	-3%
COC(=O)[C@@H](Cc1cccnc1)NC(=O)[C@H]1CN(S(=O)(=O)c2ccccc2)CCN1C(=O)NC(C)C	-3%
SMILES	NPR1 antag
Cc1noc([C@H]2CCN(C(=O)Nc3ccc4c(c3)OCCO4)C[C@H]2NC(=O)C2CC2)n1	-1%
Cc1ccc(-c2nnc3ccc(NCc4ccc5c(c4)OCO5)nn23)nc1	-1%[70.6 µM]
Cc1ccc(CC(=O)N2C[C@@H](CN3CCOCC3)[C@@H](CO)C2)cc1F	-20%
Cc1c[nH]c(CN2CCCC(CCc3ccc(F)cc3F)C2)c(C)c1=O (centres undefined)	2.5µM*
O=C1NCCN2CC3(CCN(S(=O)(=O)c4cccs4)CC3)CC12 (centres undefined)	4%
Cc1ccc(Cn2c(C3CCN(C(=O)c4ccc(C(F)(F)F)cc4)CC3)n[nH]c2=O)cc1	-27%
CCOCc1nc(C2CCCN(C(=O)Nc3ccccc3OCC)C2)no1 (centres undefined)	-9%
CC[C@H]1CN(C(=O)c2cccnc2)CC[C@H]1CC(=O)NCc1cccnc1	1%[70.6 µM]
COc1ccc(-c2ccnc(N[C@H]3CO[C@H]4[C@@H]3OC[C@@H]4NS(=O)(=O)c3ccccc3C#N)n2)cc1	-22%
CCC(=O)N1CCN(c2nc3c(s2)CC(C(=O)NCc2cccc(OC)c2)CC3)CC1 (centres undefined)	-8%
COc1ccccc1-c1nnc([C@H]2CCN(CC3CCCCC3)C2)o1	6%[70.6 µM]
COC(=O)[C@H](Cc1ccc(OC)cc1)NC(=O)[C@H]1CN(C(=O)c2cccnc2)CCN1S(C)(=O)=O	6%
Cc1cccc(CC(=O)N2CC(c3nnc(-c4ccncc4)o3)C3(CCOCC3)C2)c1 (centres undefined)	-1%
CC1(c2cccnc2)N(Cc2ccccc2)C(=O)OC12CCN(C(=O)C1CCOCC1)CC2 (centres undefined)	2%
CCc1noc(-c2ccn3c(CNC(=O)c4cc5ccccc5[nH]4)nnc3c2)n1	9%
O=C(Nc1cccc(F)c1)c1cc2n(n1)CC(c1ccc(Cl)cc1)OC2 (centres undefined)	?
CN(C)CCN1CCN(c2cc(C3CC(N)C3)nc(N)n2)CC1 (centres undefined)	4%
COc1ccc(CN2C(=O)[C@@H]3C[C@@H](O)CN3C3(CN(Cc4cnc[nH]4)C3)C2=O)cc1	7%[70.6 µM]
CC(C)N1CC[C@@H]2[C@H]1C(=O)NC[C@H](CCC(=O)N1CCC(O)CC1)N2C	4%[70.6 µM]
O=C1CC(c2ccccc2)N(C(=O)CNC(=O)c2ccoc2)CCCCCN1 (centres undefined)	3%
COC(=O)[C@@H]1Cc2ncn(C)c2CN1S(=O)(=O)c1ccc(Cl)cc1	-2%[70.6 µM]
COc1cc(NC(=O)CN2C(=O)C(c3ccccc3)=NC23CCCC3)cc(OC)c1OC	-8%
Cc1cccc(O[C@H]2COCCN(S(=O)(=O)c3c(C)noc3C)C2)n1	3%[70.6 µM]
Cc1nc(CN2Cc3nc(Nc4ccc(C(F)(F)F)cc4)ccc3OCC2=O)cs1	?
Cc1ccc(C)c(-c2cc3c(=O)n(CCNC(=O)c4ccc(F)cc4Cl)ccn3n2)c1	-19%
SMILES	NPR1 antag
COCC(=O)N1CCc2nc(C(C)C)nc(-c3ccc(OC)cc3)c2CC1	-16%
O=C(CCn1cncn1)N1CCC(c2[nH]ncc2-c2cccc(F)c2)CC1	6%
Cc1noc([C@@H]2CN(C(=O)c3ccc(C(C)C)cc3)C[C@H]2CO)n1	-1%
COCCNc1ncc(-c2ccc([S+](C)(=O)[O-])cc2)c2c1OCC2	0%[70.6 µM]
COc1ccc(-n2cccn2)c(C2CC(=O)Nc3c2c(C(C)C)nn3C)c1 (centres undefined)	-1%
CN(C)C(=O)c1cccnc1OC1CCN(S(=O)(=O)c2ccc3c(c2)CCCC3)C1 (centres undefined)	-20%
CN(CC1CCOCC1)C(=O)Cc1ccsc1	-3%
Cc1c(CC(=O)N2CCC(O)CC2)c2c(n1Cc1ccccc1F)CCCC2=O	2%
COC[C@@H]1CN(c2ncccn2)C[C@H]1C(=O)N(C)Cc1ccco1	-4%
O=C(NCc1ccncc1)c1ccc(-c2ccc(N3CCCCC3)nc2)cc1	-4%
CCc1ccccc1-n1nc(-c2c(C)nc3scc(CC(=O)NCCC(C)C)n3c2=O)cc1C	1%
Cc1ccc(NC(=O)Cn2cccc2-c2nc(-c3ccc4c(c3)OCO4)no2)cc1	1%
Cc1occc1C(=O)N1CCc2n[nH]c(=O)n2CC1	1%
COc1ccc(NC(=O)[C@@H]2C[C@@H](O)CN2C2CCN(C(=O)c3cccc(OC)c3)CC2)cc1	8%
CC(C)CN1C(=O)c2ccccc2C(C(=O)Nc2nncs2)C12CCCCC2 (centres undefined)	0%
c1cc(N2CCN(CCN3CCOCC3)CC2)ncn1	1%
CN(Cc1ccccc1C(F)(F)F)CC1CCCCC1	17%[70.6 µM]
CCc1ccc(CN2CCCC(CO)(Cc3ccc(F)cc3F)C2)cc1 (centres undefined)	-1%
Cn1nnnc1C1CCCN(C(=O)C2CCCC2)C1 (centres undefined)	4%
Cc1ccc(C(=O)N2CCCCC23Cc2ccccc2NC3=O)cc1 (centres undefined)	22%[70.6 µM]
COC(=O)[C@@H]1Cc2c([nH]c3ccccc23)[C@H]2C[C@@H](NCc3cccnc3)C[C@@H](c3ccccc3)N21	-6%
O=C(NCc1ccccc1)N1CCC(c2nc(C3CCOCC3)no2)CC1	8%
Cc1ccc(C2Cn3nnc(C(=O)N4CCN(C(=O)c5ccc(N(C)C)cc5)CC4)c3CO2)cc1 (centres undefined)	-12%
Cn1ccc2c(C(=O)NCc3cccnc3)nc(-c3cccnc3)cc21	-12%[70.6 µM]
COc1cccc2sc(NC(=O)c3ccc4c(c3)OCCN(C3CCC3)C4)nc12	?

An excerpt of these results, with bars between the fields.
Structure | NPR1 antag
Cc1ccc(C(=O)N2CCCCC23Cc2ccccc2NC3=O)cc1 (centres undefined) | 22%[70.6 µM]
c1cc(N2CCN(CCN3CCOCC3)CC2)ncn1 | 1%
CN(CC1CCOCC1)C(=O)Cc1ccsc1 | -3%
CN(C)C(=O)c1cccnc1OC1CCN(S(=O)(=O)c2ccc3c(c2)CCCC3)C1 (centres undefined) | -20%

(listing goes on)
SMILES	NPR1 antag
COCCN1CCNc2nc(COc3ccc(Oc4ccccc4)cc3)n(Cc3ccccc3)c2C1=O	-22%
COc1cc(Cl)ccc1C(=O)NC1CCc2nn(CC3CC3)c(=O)n2CC1 (centres undefined)	2%
Fc1ccc(CNC2(Cc3cc(-c4ccccc4)on3)COC2)cc1	?
O=C(N[C@@H]1CCC[C@@H]1C(=O)NCCc1cccs1)c1ccncc1	-2%
COCCc1nncn1C1CCN(S(=O)(=O)c2ccc(F)c(Cl)c2)CC1	-1%
COc1cccc(NC(=O)C2=NO[C@@H]3CN(Cc4ccc(F)cc4)C[C@H]23)c1	-4%[70.6 µM]
CCCCN1C(=O)[C@@H]2C[C@@H](O)CN2C2(CN(Cc3ccc(NC(C)=O)cc3)C2)C1=O	-3%[70.6 µM]
COc1cccc(CN2CCOC3CCN(Cc4ccc(F)cc4F)CC3C2=O)c1 (centres undefined)	-10%[70.6 µM]
COc1ccc(C(=O)Nc2ccc([C@@H](O)[C@H]3COCC(=O)N3Cc3ccccc3F)cc2)cc1	-15%
COc1ccc(C(=O)N2C[C@@H]3CCCN4CCC[C@@H]([C@H]34)[C@H]2CCCC(=O)NCc2ccccc2)cc1	0%
CCOc1ccc(CCN2C(=O)C3(CCOCC3)CC2c2nnnn2CCOC)cc1 (centres undefined)	4%
CCN1CCN(CCNC(=O)CCC[C@H]2NC[C@@H]3C[C@H]2CN(Cc2ccccc2)C3)CC1	-8%
O=C1CCCN1CCCN1C(=O)[C@H]2CN(Cc3ccccc3C(F)(F)F)C[C@H]2C1=O	2%
Cc1cc(C(=O)N2CCCC(Cc3nc(C4CCOCC4)no3)C2)nn1C (centres undefined)	20%
COc1cc2c(cc1C(=O)N1CCC3(CC1)c1nc[nH]c1CCN3C)CCC2	11%
O=C(NCC1(COc2ccc(C(F)(F)F)cn2)C[C@@H](O)[C@@H](O)C1)C1CC1 (some centres undefined)	0%[70.6 µM]
O=C(CCn1ccn2nc3c(c2c1=O)CCCC3)Nc1ccccc1Br	1%
COC(=O)c1ccc2c(c1)nc1n2[C@@H](CNCc2ccc(S(C)(=O)=O)cc2)COC1	-2%[70.6 µM]
N#Cc1ccc(CN2CCC3(CC2)CN[S+](=O)([O-])c2ccccc2N3)cc1	3%
CCOc1ccc(C(=O)N2CCC3(CC2)NC(=O)N(Cc2ccc(F)cc2)C3=O)cc1	-2%
CN(C)C(=O)N1CCc2nc(C3CC3)nc(-c3ccc(Cl)cc3)c2C1	0%[70.6 µM]
COC(=O)c1ccc2nc(CO[C@H]3CN(Cc4cn(C)c5ccccc45)C[C@H]3F)[nH]c2c1	-17%
Cn1cc(CN2CCCC23CCN(c2ccc(C(F)(F)F)cn2)CC3)cc1C#N	-19%
CCCCNC(=O)C1c2ccccc2C(=O)N(Cc2ccccc2)C12CCCC2 (centres undefined)	-15%
Cc1cccc(-c2noc([C@@H]3Cc4nc[nH]c4CN3Cc3ccc(C(=O)O)cc3)n2)c1	6%[70.6 µM]

6 compounds out of the list, sorted by heavy-atom count, lowest first:
SMILES	NPR1 antag
O=C(NCC1(COc2ccc(C(F)(F)F)cn2)C[C@@H](O)[C@@H](O)C1)C1CC1 (some centres undefined)	0%[70.6 µM]
COc1cc(Cl)ccc1C(=O)NC1CCc2nn(CC3CC3)c(=O)n2CC1 (centres undefined)	2%
COc1cc2c(cc1C(=O)N1CCC3(CC1)c1nc[nH]c1CCN3C)CCC2	11%
CCCCN1C(=O)[C@@H]2C[C@@H](O)CN2C2(CN(Cc3ccc(NC(C)=O)cc3)C2)C1=O	-3%[70.6 µM]
CCN1CCN(CCNC(=O)CCC[C@H]2NC[C@@H]3C[C@H]2CN(Cc2ccccc2)C3)CC1	-8%
COCCN1CCNc2nc(COc3ccc(Oc4ccccc4)cc3)n(Cc3ccccc3)c2C1=O	-22%

The results go on.
SMILES	NPR1 antag
Cc1ccc(C(=O)N2CCCC3(C2)NC(=O)c2ccccc2O3)cc1 (centres undefined)	-18%
O=C(NCC1Cn2cccc2C(=O)N1Cc1ccccc1)C1CCCC1 (centres undefined)	-9%
Cc1ccc(CNC(=O)c2ccc3c(c2)CN(Cc2scnc2C)CCO3)cc1	-18%
CCc1noc(-c2ccn3c(CNC(=O)C(CC)c4ccccc4)nnc3c2)n1 (centres undefined)	-14%
Cc1noc(C)c1CC(=O)N1CCc2ncnc(N3CCCC3)c2CC1	6%
NCCn1cc(C(=O)N2CCCC(c3[nH]ncc3Cc3ccccc3)C2)nn1 (centres undefined)	0%
CCCc1ccc(C(=O)N2C[C@@H](CN(C)C)[C@@H](CO)C2)cc1	2%
O=C1CCC(C(=O)N2CCc3nc(-c4cccc(F)c4)[nH]c3C2)NC(=O)N1 (centres undefined)	-1%
